Screening data (PubChem BioAssay)
Menin-MLL FL inh: qHTS Assay for Inhibitors Targeting the Menin-MLL Interaction in MLL Related Leukemias: Competition With Fluorescein Labeled MLL-derived Peptide; Fluorescence polarization, fluorescein-MLL peptide displacement from menin; FP activity change, % at 61.4 µM; 290,000 tested, under 10 active; inconclusive = falling polarisation curve, or a change in total fluorescence; inactive = total fluorescence flat and polarisation flat or rising; no compound was filed as active; the % refers to the polarisation; negative = inhibition;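 note: % of control where 0% means no effect; inhibitors lower the polarisation; unlabelled MLL peptide was the positive control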
Sfp PPTase inh: qHTS Assay for Inhibitors of Bacillus subtilis Sfp phosphopantetheinyl transferase (PPTase) | Biochemical Sfp PPTase activity, qHTS | Potency, µM, without a hit: max response, negative = inhibition, most hits filed as inhibitors | 3.5% of 310,000 active; active = well fitted inhibition curve with a large enough effect; inconclusive = small, poorly fitted or top-dose-only effect, or another doubt; inactive = no such curve, though single readings can be large or run the other way;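 note: the enzyme is Sfp with the accession as filed and its product quenches rhodamine fluorescence; potency is the fitted concentration of half-maximal effect; 0% = enzyme reaction without inhibitor and -100% = no enzyme wells; top concentration of the series not given in the record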
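Sfp 15 nM + cpd, 15 min RT; start w/ rhodamine-CoA 5 uM, BHQ-2-YbbR 12.5 uM (final); 50 mM Hepes pH 7.6, 10 mM MgCl2, 0.01% NP-40, 0.01% BSA; read 525/598 nm at 0 and 30 min.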
ClpP mod: qHTS Assay for Activators of ClpP | ATP-dependent Clp protease proteolytic subunit (Bacillus subtilis (strain 168)), P80244 | purified B. subtilis ClpP, FRET peptide cleavage, 20 min | Potency, µM (titrated, usually from 57.5 µM), inactives show top-dose activity change, negative = active | 1.9% of 340,000 active | AID 651965, 2013; active = well fitted falling curve with a large enough effect; inconclusive = small, poorly fitted or top-dose-only effect; inactive = no such curve, though single readings can be large or run the other way; note: potency is the fitted concentration of half-maximal effect; the source files actives as falling curves though it sought activators and does not explain the sign; nearly all actives have a fitted effect of over 65% in size; many hits overshoot -100%
Target sequence (P80244 whole entry, looked up): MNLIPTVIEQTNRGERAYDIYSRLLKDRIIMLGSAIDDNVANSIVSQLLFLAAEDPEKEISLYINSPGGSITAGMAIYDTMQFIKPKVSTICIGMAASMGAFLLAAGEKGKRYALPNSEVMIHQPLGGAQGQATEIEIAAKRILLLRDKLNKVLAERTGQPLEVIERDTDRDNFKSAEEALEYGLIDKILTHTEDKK
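Purified B. subtilis ClpP, 10 microg/mL final in Tris/HCl pH8 with KCl, BSA, glycerol and Tween-20, cleaved an Abz/nitrotyrosine-quenched decapeptide. Fluorescence (ex 320, em 430) was read at 0 and 20 min at room temperature. Delta was normalized to 5.8 microM ADEP and DMSO/no-enzyme controls.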
gsp agonist: qHTS for Agonist of gsp, the Etiologic Mutation Responsible for Fibrous Dysplasia/McCune-Albright Syndrome: qHTS. 0.13% of 340,000 active. Potency, µM (doses to about 76.9 µM), without a hit: at the highest dose activation (cAMP increase), most hits filed as activators. gsp mutant cells, cAMP HTRF, 30 min; control for the full effect not named in the record; active = well fitted activation curve with a large enough effect; inconclusive = small, poorly fitted or top-dose-only effect, or another doubt; inactive = no such curve, though single readings can be large or run the other way; cell line not stated here;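 note: phosphodiesterase inhibitor Ro 20-1724 added with compounds to block cAMP breakdown; potency is the fitted concentration of half-maximal effect; nearly all actives have a fitted effect of over 60% in size; about a fifth of the inactives were tested at one dose only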
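Cells in DMEM/10% FBS with G418 were pretreated with compounds in DMSO plus […] (300 uM stock) for 30 min at 37C. cAMP was measured by HTRF (cAMP-d2 plus anti-cAMP antibody-K) after 30 min at room temperature.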
PINK1 expr mod: A Quantitative High throughput Screen to Identify Chemical Modulators of PINK1 Expression; PINK1 immunofluorescence, high-content cytometry, 24 h; Potency, µM (series often up to 76.6 µM), for inactives: at the highest dose activation (PINK1 increase), usual class: activators; 0.2% of 410,000 active; active = well fitted activation curve with a large enough effect; inconclusive = small, poorly fitted or top-dose-only effect; inactive = flat fitted curve, though single readings scatter; cell line not stated here;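 note: potency is the fitted concentration of half-maximal effect; % of control where 0% means no effect; nearly all actives have a fitted effect of over 65% in size; a mitochondrial uncoupler was the plate control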
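Decision-based qHTS: stable cells, 24 h exposure to five compound concentrations, CCCP as control. Fixed cells stained for PINK1 plus nuclear, mitochondrial and cell markers, cytometer read.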
D2 ag: Beta-Arrestin HTS for Positive Allosteric Modulators of the Human D2 Dopamine Receptor: Agonists | DiscoveRx PathHunter D2 beta-arrestin, luminescence, 90 min; 100% = 57 uM dopamine signal | activation, % (test concentration not listed) | 0.084% of 360,000 active | AID 624465, 2012; in the data active = activation above about 40%; inconclusive = about 15% to 40%; inactive = below about 15%; note: compound concentration not given in the record; the text of the record calls up to 30% inactive
Target sequence (P14416 whole entry, looked up): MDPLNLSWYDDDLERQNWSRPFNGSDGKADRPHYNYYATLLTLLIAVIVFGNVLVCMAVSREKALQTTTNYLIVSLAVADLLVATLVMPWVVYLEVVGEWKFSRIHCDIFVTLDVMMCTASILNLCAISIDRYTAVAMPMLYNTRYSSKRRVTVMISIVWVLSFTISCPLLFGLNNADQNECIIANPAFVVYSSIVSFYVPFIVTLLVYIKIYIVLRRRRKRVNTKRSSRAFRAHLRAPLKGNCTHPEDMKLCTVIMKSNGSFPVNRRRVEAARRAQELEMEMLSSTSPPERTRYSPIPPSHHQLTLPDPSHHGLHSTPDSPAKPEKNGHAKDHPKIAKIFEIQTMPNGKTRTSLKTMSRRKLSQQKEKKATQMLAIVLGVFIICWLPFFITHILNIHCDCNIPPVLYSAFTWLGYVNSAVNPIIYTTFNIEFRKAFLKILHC
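DiscoveRx PathHunter D2 beta-arrestin cells (2,100/well) attached overnight, then compound-stimulated 90 min at 37 C in HBSS/10 mM HEPES/0.1% Tween-20 buffer; beta-galactosidase complementation read by luminescence after 1 h at ambient temperature. Dopamine 57 uM final (EC100) as control.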
gsp antagonist: qHTS for Antagonists of gsp, the Etiologic Mutation Responsible for Fibrous Dysplasia/McCune-Albright Syndrome: qHTS; AID 624288, 2012; 0.4% of 340,000 active; gsp-mutant cells, cAMP HTRF, 30 min; control for the full effect not named in the record; Potency, µM (doses to about 76.9 µM), without a hit: at the top dose activity change, negative = inhibition, most hits filed as inhibitors; active = falling curve of any shape with a large fitted effect; inconclusive = falling curve, mostly with a smaller effect; inactive = flat or rising curve; cell line not stated here;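 note: intracellular cAMP measured with PDE inhibitor Ro 20-1724 present during compound exposure; potency is the fitted concentration of half-maximal effect; % is set by controls: 0 for no effect and ±100 for the full control effect; nearly all actives have a fitted effect of over 65% in size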
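Cells, 2000/well, grown 16–24 h in DMEM 10% FBS with 0.5 mg/ml G418, then compounds plus […] (300 uM addition stock), 30 min at 37C. cAMP read by HTRF (cAMP-d2 and anti-cAMP antibody-K in lysis buffer) after 30 min RT.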
Numbers without * were called inactive; ? = inconclusive; . = no result given; [ ] = another dose, or the depositor's remark.

SMILES	Menin-MLL FL inh	Sfp PPTase inh	ClpP mod	gsp agonist	PINK1 expr mod	D2 ag	gsp antagonist
COc1cccc(NC(=O)C2CCCN(S(=O)(=O)c3cccc4nsnc34)C2)c1 (configuration not stated)	3.4	10.9%	-0.3%	3.3%	-0.2%	-2.8	-16.8%
COc1ccc(CC(=O)NCC2(c3ccc(OC)c(OC)c3)CCCC2)cc1	-2.4	20.2%	.	22.2%[15.4 µM]	1.3%	0.9	.
Cc1ccc(C)c(-c2nnc(NC(=O)C3=COCCO3)o2)c1	.	.	.	-3.0%[15.4 µM]	2.1%	-6.1	-2.2%
Cc1ccc(Cc2c(-c3ccc(C)cc3)nc3ccc(Br)cn23)cc1	.	.	-10.0%	-3.6%	11.7%	-3.0	.
COc1ccccc1NS(=O)(=O)c1cc(C)ccc1C	-0.4	5.2%	-0.3%	-21.0%	1.9%	3.5	6.31µM*
COc1cc(OC)c(OC)cc1/C=N/n1c(COc2ccccc2)n[nH]c1=S	-0.1	44.7µM*	-3.7%	8.5%[15.4 µM]	3.6%	-3.5	2.0%
CCOc1ccccc1NC(=O)CCN1CCN(S(=O)(=O)c2ccc(Br)cc2)CC1	0.5	7.6%	-1.4%	0.5%	4.0%	-0.2	3.1%
COc1cc(C2C(C(=O)c3cccs3)=C(O)C(=O)N2Cc2ccco2)cc(OC)c1OC (configuration not stated)	1.1	-5.9%	-3.0%	-61.1%[inhibitor]	0.2%	-2.3	7.3%
O=C(O)c1nn(Cc2nc3ccccc3o2)c(=O)c2ccccc12	2.8	16.3%	.	24.0%[15.4 µM]	-0.4%	-1.4	6.4%
CCOC(=O)C1=CN(Cc2cccc(F)c2)S(=O)(=O)N(C)C1c1cccc(OC)c1 (configuration not stated)	.	.	-1.1%	.	1.1%	1.0	-3.5%
CSc1nc(-c2ccccc2)nc(NC(C)=O)c1C(C)=O	-0.1	12.1%	0.2%	-31.7%	-0.4%	-2.6	1.1%
COc1ccc(C2=NN(C(=O)CSc3nc4ccccc4s3)C(c3ccc(OC)cc3)C2)cc1 (configuration not stated)	5.6	7.0%	-9.1%	25.0%	-2.8%	-1.8	-2.3%
Cc1ccc(C(=O)c2ccccc2C(=O)O)c(O)c1	3.7	4.6%	0.6%	-38.6%[inhibitor]	.	-0.7	-13.7%
CCN(Cc1ccccc1)C(=O)CCc1nc(CN2CCN(C(=O)c3ccc([N+](=O)[O-])cc3)CC2)no1	-6.4	9.2%	.	-4.2%	-0.9%	2.6	1.3%
Cc1cc(C)c(N)c(C(=O)O)c1	-12.4	19.3%	4.9%	-33.5%	-0.1%	-1.0	0.1%
NC(=O)C1CCN(C(=O)c2ccc(NS(=O)(=O)c3ccc(F)c(F)c3)cc2)CC1	.	.	-0.8%	-8.9%	3.1%	-2.5	8.9%
Cc1cc(C)c(C#N)c(SCC(=O)OC2CCCCC2)n1	2.4	-3.4%	-3.3%	5.6%	2.1%	-4.3	?
CSCCC(NS(=O)(=O)c1cccc(C(F)(F)F)c1)C(=O)N(C)CCOc1ccc(Cl)cc1 (configuration not stated)	.	.	1.5%	-1.3%	1.6%	4.2	-24.3%
CCO[C@H]1OC(C(=O)N2CCN(Cc3ccccc3)CC2)=C[C@@H](c2coc3ccccc3c2=O)[C@@H]1CCCO	-3.8	-0.3%	1.3%	19.5%	-0.2%	10.9	-9.3%
O=C(Nc1cccc(Oc2ccc3c(c2)C(=O)NC3=O)c1)c1cccs1	-0.5	22.3%	-2.0%	-25.4%	0.3%	1.8	-1.5%
Cn1cccc1C(C#N)c1ccccc1C#N (configuration not stated)	-0.3	16.7%	.	-90.2%[inhibitor]	-0.4%	-1.9	-11.0%
CCOC(=O)C1=C(C)N(C[C@@H]2CC[C@@H](Cc3ccc(-c4ccccc4)cc3)O2)C(=O)NC1c1ccc(C(F)(F)F)cc1 (some centres not stated)	.	.	-1.3%	.	1.9%	-1.3	8.6%
CCNC(=O)C1CCCN1C(=O)C(CCCN=C(N)N)NC(=O)C(CC(C)C)NC(=O)C(Cc1cn(Cc2ccccc2)cn1)NC(=O)C(Cc1ccc(O)cc1)NC(=O)C(CO)NC(=O)C(Cc1c[nH]c2ccccc12)NC(=O)C(Cc1cnc[nH]1)NC(=O)C1CCC(=O)N1 (configuration not stated)	-4.2	6.6%	-1.4%	.	0.3%	3.3	-6.5%
O=C(NC1=NCCS1)C1CC(=O)N(c2ccc(F)cc2)C1 (configuration not stated)	-1.6	12.1%	1.7%	-8.2%	2.1%	-1.0	9.2%
O=C(N/N=C/c1ccccc1OCc1ccccc1)c1cccs1	2.5	?	26.2%	4.1%	7.3%	-0.3	-0.4%
SMILES	Menin-MLL FL inh	Sfp PPTase inh	ClpP mod	gsp agonist	PINK1 expr mod	D2 ag	gsp antagonist
CCC(OC(=O)c1nsc(Cl)c1Cl)C(=O)NCC1CCCO1 (configuration not stated)	4.7	7.2%	.	34.4%[15.4 µM]	3.1%	-0.4	26.0%
CCOc1ccc(Nc2cc(C)nc(-n3nc(C)cc3C)n2)cc1	-8.4	12.0%	0.9%	-0.6%	3.4%	-7.2	24.2%
COc1cccc(N2CCN(C(=O)c3ccc4ccccc4c3)CC2)c1	.	.	-5.2%	4.7%	2.8%	0.7	-1.9%
Cc1nc(NC(=O)CSc2ccccc2N)sc1C	3.9	-21.4%	0.6%	2.7%	.	-2.8	6.3%
CC(=O)c1sc(NC(=O)CS(=O)(=O)c2ccccc2)nc1-c1ccccc1	.	.	-1.0%	-3.4%	3.4%	-0.1	3.8%
O=C(c1ccsc1)N1CCCC(N2CCN(c3cccc(C(F)(F)F)c3)CC2)C1 (configuration not stated)	.	2.8%	-0.3%	16.8%	1.2%	-0.1	-17.5%
COc1cccc(OCc2ccc(C(=O)NCC3CCCO3)cc2)c1 (configuration not stated)	2.1	3.1%	-0.4%	-0.4%[15.4 µM]	2.4%	-6.0	-5.8%
O=C(Nc1ccccc1)c1nc[nH]c1C(=O)NCCN(CCNC(=O)c1[nH]cnc1C(=O)Nc1ccccc1)CCNC(=O)c1[nH]cnc1C(=O)Nc1ccccc1	.	.	-17.3%	15.5%	2.2%	1.7	2.6%
CC(C)c1cccc(-c2ccc3c(c2)S(=O)(=O)c2cccc(C(=O)O)c2C3=O)c1	.	.	-1.2%	.	0.5%	-4.3	-5.5%
O=C(c1ccc2nc3ccc(Cl)cc3c(=O)n2c1)N1CCOCC1	2.7	2.2%	15.8µM*	18.5%	-3.9%[38.3 µM]	4.8	5.2%
O=C(NCc1ccc2c(c1)OCO2)c1ccc(COc2cccc(Cl)c2)o1	1.5	-2.6%	4.6%	-4.2%[15.4 µM]	-0.5%	-3.4	-19.7%
Cc1cc(F)ccc1-c1cc(C(=O)NC2CCCCC2)[nH]n1	.	.	2.0%	.	2.1%	-2.9	.
Cn1c(SCC(=O)N2CCc3ccccc32)nnc1-c1ccc(S(=O)(=O)N2CCCC2)cc1	2.8	7.5%	50.8%	?	9.1%	-3.5	2.4%
COc1ccc(N2CCN(C(=O)CN3C(=O)COc4ccccc43)CC2)cc1	0.7	10.2%	.	-2.6%	2.4%	0.4	-6.5%
COc1ccc(/C=N/Nc2nc(Nc3ccccc3)nc(N3CCCC3)n2)cc1[N+](=O)[O-]	1.7	-0.4%	.	-24.4%	4.3%	-0.8	-14.9%
COc1ccc(NC(=O)c2cc3c([nH]c4ccccc43)c(C)n2)cc1	7.8	-2.5%	.	5.4%	-1.4%	7.9	-0.4%
COc1ccc(C(=O)NNC2CC(=O)N(Cc3ccc(Cl)cc3)C2=O)cc1OC (configuration not stated)	1.8	14.5%	-2.9%	-7.2%	1.3%	1.2	-2.0%
COc1cccc(NC(=O)Nc2cc(C(=O)O)ccc2N2CC3CC(C2)c2cccc(=O)n2C3)c1 (configuration not stated)	.	3.5%	-2.9%	-9.5%	-1.1%	3.7	23.7%
CC(=O)N1CCN(C(=O)c2ccc(OC3CCN(Cc4ccccn4)CC3)cc2)CC1	-6.6	9.1%	.	5.2%[15.4 µM]	1.7%	-4.9	5.6%
CCc1c(C)nc2ncnn2c1N1CCC(C(=O)Nc2ccccc2)CC1	-0.3	16.8%	0.4%	-29.5%	12.6µM*	0.6	-22.2%
CCCC(=O)Nc1ccc(Br)c(Cl)c1	?	3.5%	1.3%	-14.8%	1.0%	-2.4	5.7%[15.4 µM]
O=S(=O)(c1ccccc1F)N1CCN(CCOc2ccccc2)CC1	.	.	-0.6%	-5.6%	-0.8%	-1.1	4.3%
Cc1nc2ccc(Cl)cc2c(-c2ccccc2F)c1CC(=O)O	-1.8	9.2%	2.5%	?	-1.0%	-3.7	0.3%
C=CCN(c1ccc(C(N)=O)cc1)S(C)(=O)=O	1.8	13.2%	-0.5%	-20.6%	0.9%	-2.2	2.9%
O=C(Cc1cccc2ccccc12)Nc1ccc2c(c1)C(=O)NC2=O	-1.6	8.2%	.	-9.6%[15.4 µM]	-0.2%	-0.9	0.6%
CCCNC(=O)C1(C)CCCN(C(=O)c2cccc(OC(F)(F)F)c2)C1 (configuration not stated)	.	.	2.3%	.	0.5%	-5.3	.
Cc1ccc2nc(-c3ccncc3)cc(C(=O)NCc3ccccc3F)c2c1	0.6	-9.3%	3.9%	4.8%	4.4%	0.7	?
Cn1c(Cn2c(=O)sc3ccccc32)nnc1SCC(N)=O	3.2	12.4%	-1.6%	1.9%	-0.4%	0.7	8.7%
